Sa RN4220 lethal – kills Staphylococcus aureus RN4220; S. aureus RN4220 growth, OD600, 16 h; inhibition, % (no concentration beside the values); 330,000 tested, 0.33% active; AID 1259311;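 active means z-score of -3 or lower and OD600 up to 0.18 on both plates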;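 further: plate controls were untreated cells for no effect and reference antibiotic for full effect; stock transfer was 100 nL into about 80 µL; one replicate is shown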
BJeLR viability – kills HRASV12-expressing BJeLR cells. BJeLR (HRASV12) viability, CellTiter-Glo ATP luminescence, 48 h; reference of the scale not given here. inhibition, % (test concentration not listed). 300,000 tested, 0.17% active. AID 1554;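 active means replicate mean above 50%; inconclusive means above 50% but judged a plate artefact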;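 further: 50 nL library stock added to about 25 µL; numbers are from one replicate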
Mtb hypoxia inh – reduces hypoxia-regulated biosensor signal in M. tuberculosis. M. tuberculosis hypoxia-regulated fluorescent reporter, fluorescence. fluorescence inhibition, % (test concentration not listed). 300,000 tested, 0.1% active. AID 1159583;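 active means 35 to 45% if threefold the growth effect, above 45% if 1.5-fold the growth effect; inactive means the rest, general growth blockers included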;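 further: wells of about 50 µL received 100 nL stock; 0% = vehicle wells and 100% = reference inhibitor wells; whole bacteria with a GFP reporter of the hypoxia response; strong numbers were not always called active; many hits fall short of the cut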
PrP UTR inh – inhibition of PrP 5' UTR reporter expression. inhibition, % (no concentration beside the values). 340,000 tested, 0.35% active. cell-based PrP 5' UTR mRNA reporter, plate reader;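 active means every replicate at 50% or more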;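 further: 0 = median of the neutral control wells; tested in H4 reporter cells; numbers are from one replicate; inactives centre near -14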
ugtP null kill – growth inhibition of S. aureus ugtP deletion strain; S. aureus RN4220 ugtP deletion, OD600 growth, 16 h; some inactives read as strong as hits; growth inhibition, % (test concentration not listed); 330,000 tested, 0.54% active; AID 1259309;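 active means z-score under -3 and OD600 up to 0.15 on both plates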;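 further: plate controls were untreated wells for no effect and antibiotic for full effect; wells of about 80 µL received 100 nL stock; the first replicate is given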
Autofluor counter – compound fluorescence in toxin protease inhibitor counterscreen; 360,000 tested, 3.1% active; compound autofluorescence counterscreen, microsphere flow cytometry; hits give high values; AID 624483; fluorescence intensity (concentration not given with the values);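 active means at least 3 SD above the mean of all compounds, about 16000 in these data; inconclusive means too few beads counted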;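 further: 100 nL of 1 mM stock went into each well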
Mtb hypoxia inh growth – further read-out of Mtb hypoxia inh, marked with its call; growth inhibition, %; measured here: M. tuberculosis growth (absorbance);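 0% = vehicle and 100% = reference antibiotic; read after six days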
Numbers without * were called inactive; ? = inconclusive; nt = no result given.

1) Cc1onc(-c2ccccc2)c1C(=O)OCC(=O)N1CCN(c2ccccc2)CC1
2) CC1(C)SC(=S)N(NC(=O)Nc2ccccc2)C1N(O)C(=O)Nc1ccccc1 (configuration not stated)
3) O=C(NCCc1ccccc1)/C(=C\c1ccc([N+](=O)[O-])cc1)NC(=O)c1ccccc1
4) Cc1ccccc1Cn1nnc(-c2cccc(C(=O)O)c2)n1
5) Cc1ccc(CNC(=O)CN2CCN(Cc3ccc(Cl)cc3)C2=O)cc1
entry no.	1	2	3	4	5
Sa RN4220 lethal	3.4	8.1	3.8	2.1	-3.9
BJeLR viability	-8	0	4	-5	16
Mtb hypoxia inh	13	14	-11	8	nt
Mtb hypoxia inh growth	4	6	-8	7	nt
PrP UTR inh	-10	-31	-10	-71	-5
ugtP null kill	6	3	-2	0	10
Autofluor counter	?	10182	2589	7941	5910

6) CC(Oc1ccc(Br)cc1)C(=O)Nc1nnc(C2CC2)s1 (configuration not stated)
7) COC(=O)c1ccc(-c2ccc(/C=N/N3C(=O)C4C5C=CC(C6CC56)C4C3=O)o2)cc1 (configuration not stated)
8) CO/N=C(\c1nonc1N)N1CCN(c2ccc(Cl)cc2[N+](=O)[O-])CC1
9) CC(=O)n1cc(C2C(=O)CCCC2=O)c2ccccc21
10) CC(=O)c1ccc(S(=O)(=O)N2CCN(CC(=O)NC(=O)NC3CCCCC3)CC2)cc1
entry no.	6	7	8	9	10
Sa RN4220 lethal	-4.7	nt	nt	1.8	8.9
BJeLR viability	-9	-1	-6	-3	nt
Mtb hypoxia inh	-2	nt	nt	nt	5
Mtb hypoxia inh growth	-7	nt	nt	nt	5
PrP UTR inh	-4	2	-23	-6	-15
ugtP null kill	3	nt	nt	0	14
Autofluor counter	nt	2435	4551	4988	6380

11) CC(C)NC(=O)COc1coc(CN2CCN(c3ccccc3)CC2)cc1=O
12) COc1ccc(NC(=O)c2ccccc2NC(=O)NC2CCCCC2)cc1
13) COc1cccc(-n2nc(-c3ccnn3-c3ccc(F)cc3)c(=O)n(C)c2=O)c1
14) Cn1c(C(=O)NC2CCCCCC2)cc2c(=O)n(C)c3ccccc3c21
15) C=CCNC(=O)C1CCN(c2ccc(S(=O)(=O)N3CCOCC3)cc2[N+](=O)[O-])CC1
entry no.	11	12	13	14	15
Sa RN4220 lethal	4.1	4.8	-2.0	3.8	4.0
BJeLR viability	7	-7	-2	0	2
Mtb hypoxia inh	-1	6	nt	nt	15
Mtb hypoxia inh growth	3	12	nt	nt	6
PrP UTR inh	-5	-51	-11	-17	-23
ugtP null kill	11	-4	7	10	7
Autofluor counter	5672	23203*	2945	6061	5684

16) O=C(CCl)Nc1cccn2ncnc12
17) CCCCN(C(=O)C1CC(=O)N(c2ccc3c(c2)OCCO3)C1)c1c(N)n(CCCC)c(=O)[nH]c1=O (configuration not stated)
18) CCOc1ccc(OCCC(=O)OCC(=O)Nc2ccc(C)c(S(=O)(=O)N3CCCCC3)c2)cc1
19) COc1ccc(CCNC(=O)CN(C)S(=O)(=O)c2cccs2)cc1OC
20) O=c1[nH]c2ccccc2c(O)c1SCCO
entry no.	16	17	18	19	20
Sa RN4220 lethal	-3.2	4.0	5.8	4.1	2.1
BJeLR viability	0	-1	-9	7	-5
Mtb hypoxia inh	20	6	-3	nt	-1
Mtb hypoxia inh growth	28	0	-3	nt	2
PrP UTR inh	-15	-13	-19	-7	6
ugtP null kill	-3	3	11	4	-2
Autofluor counter	3335	4499	?	2335	1993

21) O=C(NC(=S)N1CCN(Cc2ccccc2)CC1)c1cccnc1
22) Cc1ccccc1-c1nc(CN2CCN(C(=O)c3ccco3)CC2)c(C)o1
23) Cc1ccc(-c2nc3cccnc3o2)cc1NC(=O)COc1ccc(Cl)cc1C
24) NS(=O)(=O)c1ccc(NC(=O)c2ccc3c(c2)OCO3)cc1
25) COc1ccc(C2CC(c3ccccc3)=NN2C(=O)COC(=O)C2(C)CC2(Cl)Cl)cc1 (configuration not stated)
entry no.	21	22	23	24	25
Sa RN4220 lethal	1.3	1.3	20	8.2	-3.3
BJeLR viability	6	3	-5	1	8
Mtb hypoxia inh	1	6	4	15	6
Mtb hypoxia inh growth	-7	4	-1	2	1
PrP UTR inh	-23	-18	-12	-17	-11
ugtP null kill	-9	-2	12	11	3
Autofluor counter	4130	6843	3084	3635	3535

26) Cc1nn(C)cc1CNC(=O)c1cnn2c(C(F)F)cc(C3CC3)nc12
27) COC(=O)CC1c2ccccc2S(=O)(=O)N1Cc1ccc(OC)cc1 (configuration not stated)
28) CN(C)CCCNc1c2c(nc3ccccc13)CCC2
29) Cc1ccc(-c2cc(=O)c3ccccc3[nH]2)cc1
30) COc1nc(NC(C)=O)nc(C)c1Br
entry no.	26	27	28	29	30
Sa RN4220 lethal	2.7	9.6	1.1	4.3	1.1
BJeLR viability	-1	nt	10	1	-3
Mtb hypoxia inh	nt	14	8	15	-1
Mtb hypoxia inh growth	nt	-8	12	10	2
PrP UTR inh	-1	nt	-8	-39	nt
ugtP null kill	7	0	3	1	-2
Autofluor counter	4894	nt	3277	4143	nt

31) O=C(ON=C1CCSCC1)c1ccccc1
32) CC(=NNc1nc(N2CCOCC2)nc(N2CCOCC2)n1)c1cccs1
33) Cc1ccc(NC(=O)/C=C/c2cccc([N+](=O)[O-])c2)nc1
34) COc1ccc(C(=O)Nc2cccc3cccnc23)cc1OC
35) CCCCc1n[nH]c2c1/C(=N/O)CC(c1ccccc1)C2 (configuration not stated)
entry no.	31	32	33	34	35
Sa RN4220 lethal	0.3	8.0	0.0	4.3	nt
BJeLR viability	4	nt	-2	0	13
Mtb hypoxia inh	0	-1	4	6	nt
Mtb hypoxia inh growth	10	-6	6	5	nt
PrP UTR inh	-20	nt	-56	-13	-14
ugtP null kill	-1	11	-1	-12	nt
Autofluor counter	3132	nt	2658	23720*	2404

36) CC(=O)Nc1ccc(C(=O)NN=Cc2ccncc2)cc1
37) Cc1cccc(NCC(=O)NNC(=S)Nc2ccccc2)c1
38) CCCSCCCNC(=O)Cn1cc2c(n1)CCCCC2
39) Oc1ccc(/C=N/Nc2cc(N3CCCC3)nc(N3CCCC3)n2)cc1O
40) Cc1cc(C(=O)OCC(=O)Nc2cc(S(=O)(=O)N(C)C)ccc2Cl)c2ccccc2n1
entry no.	36	37	38	39	40
Sa RN4220 lethal	-0.6	3.6	0.6	nt	11
BJeLR viability	nt	nt	0	-11	10
Mtb hypoxia inh	4	20	nt	nt	-14
Mtb hypoxia inh growth	9	6	nt	nt	-3
PrP UTR inh	nt	-14	-9	-14	-20
ugtP null kill	1	5	2	nt	4
Autofluor counter	nt	4149	6000	2031	3570

Shown with values under each structure: entries from further up
Order of values: Sa RN4220 lethal	BJeLR viability	Mtb hypoxia inh	Mtb hypoxia inh growth	PrP UTR inh	ugtP null kill	Autofluor counter
[26] Cc1nn(C)cc1CNC(=O)c1cnn2c(C(F)F)cc(C3CC3)nc12
 : 2.7	-1	nt	nt	-1	7	4894
[27] COC(=O)CC1c2ccccc2S(=O)(=O)N1Cc1ccc(OC)cc1 (configuration not stated)
 : 9.6	nt	14	-8	nt	0	nt
[28] CN(C)CCCNc1c2c(nc3ccccc13)CCC2
 : 1.1	10	8	12	-8	3	3277
[29] Cc1ccc(-c2cc(=O)c3ccccc3[nH]2)cc1
 : 4.3	1	15	10	-39	1	4143
[30] COc1nc(NC(C)=O)nc(C)c1Br
 : 1.1	-3	-1	2	nt	-2	nt
[31] O=C(ON=C1CCSCC1)c1ccccc1
 : 0.3	4	0	10	-20	-1	3132
[32] CC(=NNc1nc(N2CCOCC2)nc(N2CCOCC2)n1)c1cccs1
 : 8.0	nt	-1	-6	nt	11	nt
[33] Cc1ccc(NC(=O)/C=C/c2cccc([N+](=O)[O-])c2)nc1
 : 0.0	-2	4	6	-56	-1	2658
[34] COc1ccc(C(=O)Nc2cccc3cccnc23)cc1OC
 : 4.3	0	6	5	-13	-12	23720*
[35] CCCCc1n[nH]c2c1/C(=N/O)CC(c1ccccc1)C2 (configuration not stated)
 : nt	13	nt	nt	-14	nt	2404
[36] CC(=O)Nc1ccc(C(=O)NN=Cc2ccncc2)cc1
 : -0.6	nt	4	9	nt	1	nt
[37] Cc1cccc(NCC(=O)NNC(=S)Nc2ccccc2)c1
 : 3.6	nt	20	6	-14	5	4149

(next part)
41) Nc1ccc(S(=O)(=O)N2CC3CC(C2)c2cccc(=O)n2C3)cc1 (configuration not stated)
42) Cc1cc(NC(=O)CSc2nnc(Nc3ccccc3C)s2)no1
43) Cc1cnn(Cc2ccccc2)c1N
44) CC1(C)C(=O)Nc2ccccc2N1C(=O)COc1cccnc1[N+](=O)[O-]
45) CC(C)(C)C(=O)Nc1sc2c(c1C#N)CCCCC2
entry no.	41	42	43	44	45
Sa RN4220 lethal	-1.1	2.8	2.8	-1.5	-2.5
BJeLR viability	4	0	-5	-8	-3
Mtb hypoxia inh	nt	8	10	-1	nt
Mtb hypoxia inh growth	nt	14	4	7	nt
PrP UTR inh	-15	-9	4	-31	-21
ugtP null kill	2	3	8	4	6
Autofluor counter	5775	4695	6903	4678	2637

46) Cc1c(C(=O)NC2CC2)oc2ccc(S(=O)(=O)N3CCCCCC3)cc12
47) Cc1ccc(C)c(N2CCN(C(=O)CN(C)S(=O)(=O)c3ccc4c(c3)CCC(=O)N4)CC2)c1
48) FC(F)Sc1ccc(-n2cc(-c3ccc(Cl)cc3)[n+]3c2CCC3)cc1
49) N#CCCn1ncc2ccccc21
50) COC(=O)C1(C)NC(c2ccccc2C)C2C(=O)N(c3ccc(F)cc3)C(=O)C21 (configuration not stated)
entry no.	46	47	48	49	50
Sa RN4220 lethal	7.5	6.4	1.3	-1.3	nt
BJeLR viability	2	3	5	-2	-4
Mtb hypoxia inh	7	7	-3	9	nt
Mtb hypoxia inh growth	8	5	-2	3	nt
PrP UTR inh	-16	0	-25	-21	-15
ugtP null kill	-2	19	0	1	nt
Autofluor counter	9015	5112	2591	4050	2906

51) CC(C)CC(=O)n1sc(NC(=O)c2ccccc2)nc1=O
52) CC(CO)(CO)NC(=O)c1ccc(=O)[nH]n1
53) Cc1cnc(CNC(=O)CC2C(=O)NCCN2Cc2cccc(F)c2F)cn1 (configuration not stated)
54) O=C1COc2ccc(C(=O)COC(=O)c3ncc(Cl)c(Cl)c3Cl)cc2N1
55) O=C(Nc1ccc2c(c1)OCCO2)N1CCN(Cc2ccccc2)CC1
entry no.	51	52	53	54	55
Sa RN4220 lethal	17	0.4	1.7	3.9	5.7
BJeLR viability	-6	1	-5	-6	-13
Mtb hypoxia inh	4	14	-3	1	10
Mtb hypoxia inh growth	-1	1	1	7	18
PrP UTR inh	7	-4	-15	-4	-23
ugtP null kill	2	0	1	1	4
Autofluor counter	5730	4332	5881	5750	4724

56) COc1cc(C2(C#N)CCN(C)CC2)cc(OC)c1OC
57) CC(=O)NCCCC(=O)NNC1CC(=O)N(c2cccc(Cl)c2)C1=O (configuration not stated)
58) Fc1ccc(CSc2ccc(-c3ccc4c(c3)OCO4)nn2)cc1
59) CC(C)N(C(=O)COC(=O)Cn1cnc2ccccc21)c1ccccc1
60) COc1cccc(C=NNC(=O)c2cnn(-c3ccccc3)c2N)c1
61) COc1ccc(C(=O)NNC(=O)CSc2nc(C(C)C)nc3ccccc23)cc1
62) CN(C(=O)CSc1nnc(C2CC2)n1C1CC1)C1(C#N)CCCCC1
63) COC(=O)C(O)(CC(=O)Nc1ccc(Cl)cc1Cl)C(F)(F)F (configuration not stated)
entry no.	56	57	58	59	60	61	62	63
Sa RN4220 lethal	-3.2	0.2	15	3.8	1.7	6.4	3.2	3.4
BJeLR viability	nt	-15	-10	nt	nt	-7	nt	-5
Mtb hypoxia inh	9	1	16	8	7	7	14	1
Mtb hypoxia inh growth	8	-6	2	16	10	5	2	2
PrP UTR inh	-5	nt	-28	-10	nt	-15	-15	-13
ugtP null kill	-7	5	18	5	2	0	5	0
Autofluor counter	3577	3594	2195	nt	nt	4830	2990	4692
